BJeLR lethal: kills HRASV12-expressing BJeLR cells | BJeLR (HRASV12) viability, CellTiter-Glo ATP luminescence, 48 h; reference of the scale not given here | inhibition, % (no concentration beside the values) | 0.17% of 300,000 active;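 active means replicate mean above 50%; inconclusive means above 50% but judged a plate artefact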;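 further: 50 nL library stock added to about 25 µL; numbers are from one replicate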
Bead autofluor: compound fluorescence in toxin protease inhibitor counterscreen | compound autofluorescence counterscreen, microsphere flow cytometry; hits give high values | 3.1% of 360,000 active | fluorescence intensity (no concentration beside the values);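 active means at least 3 SD above the mean of all compounds, about 16000 in these data; inconclusive means too few beads counted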;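 further: 100 nL of 1 mM stock went into each well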
ugtP null kill: compounds lethal to S. aureus RN4220 ugtP deletion mutant; OD600 growth, 16 h; some inactives read as strong as hits; growth inhibition, % (no concentration beside the values); 0.54% of 330,000 active; AID 1259309;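 active means z-score under -3 and OD600 up to 0.15 on both plates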;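 further: plate controls were untreated wells for no effect and antibiotic for full effect; wells of about 80 µL received 100 nL stock; the first replicate is given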
RN4220 kill: kills Staphylococcus aureus RN4220; S. aureus RN4220 growth, OD600, 16 h; inhibition, % (no concentration beside the values); 0.33% of 330,000 active;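 active means z-score of -3 or lower and OD600 up to 0.18 on both plates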;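 further: plate controls were untreated cells for no effect and reference antibiotic for full effect; stock transfer was 100 nL into about 80 µL; one replicate is shown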
Mtb hypoxia inh: Mtb hypoxia fluorescent reporter inhibition. fluorescence inhibition, % (no concentration beside the values). 0.1% of 300,000 active. AID 1159583. M. tuberculosis hypoxia-regulated fluorescent reporter, fluorescence;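 active means 35 to 45% if threefold the growth effect, above 45% if 1.5-fold the growth effect; inactive means the rest, general growth blockers included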;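 further: wells of about 50 µL received 100 nL stock; 0% = vehicle wells and 100% = reference inhibitor wells; whole bacteria with a GFP reporter of the hypoxia response; strong numbers were not always called active; many hits fall short of the cut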
PrP UTR inh: inhibition of PrP 5' UTR reporter expression. 0.35% of 340,000 active. AID 488862. cell-based PrP 5' UTR mRNA reporter, plate reader. inhibition, % (test concentration not listed);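 active means every replicate at 50% or more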;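 further: 0 = median of the neutral control wells; tested in H4 reporter cells; numbers are from one replicate; inactives centre near -14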
Mtb hypoxia inh growth: recorded beside Mtb hypoxia inh, whose call it bears; growth inhibition, %; measured here: M. tuberculosis growth (absorbance);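 0% = vehicle and 100% = reference antibiotic; read after six days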
* hit, by the source's call; ? = inconclusive; / = not tested or not shown.

SMILES	BJeLR lethal	Bead autofluor	ugtP null kill	RN4220 kill	Mtb hypoxia inh	Mtb hypoxia inh growth	PrP UTR inh
CC1CC(=O)N(CC(=O)Nc2cccc(Cl)c2)c2ccccc2S1(=O)=O (centres undefined)	3.0	5691	/	/	/	/	8.1
O=C(c1ccc(Cl)c(S(=O)(=O)N2CCCC2)c1)N1CCN(c2ccccn2)CC1	1.0	11178	-0.9	1.9	2.6	11.3	-0.7
COc1cc(C(=O)Nc2cccc(-n3cnnn3)c2)cc(Cl)c1OC	0.8	5230	-1.0	1.5	16.5	21.1	-2.0
CNc1ncc(-c2nnnn2-c2ccccc2)c(-c2ccccc2)n1	-5.1	5596	-3.3	6.2	9.3	-2.6	-30.1
O=C(CNC(=S)N(CCCN1CCOCC1)Cc1cccs1)NCc1ccc(Cl)cc1	6.0	4366	6.6	7.2	5.5	3.9	0.3
NC(=O)C1=C[C@@H](c2coc3ccccc3c2=O)C[C@@H](OCCCCO)O1	2.9	2798	/	/	/	/	-1.8
Cc1cccc(CSC2=CS(=O)(=O)c3ccccc3N2)c1	4.9	2596	-0.8	-1.5	/	/	-7.7
CCOCCc1nnc(NC(=O)Cc2ccc(Br)cc2)s1	4.9	23584*	2.5	4.6	17.4	9.2	-9.9
O=C(O)c1c[nH]c(=O)c2ccccc12	-7.3	2056	4.0	3.6	2.5	-0.1	-2.8
CCOC(=O)CNC(=O)CSc1nc(-c2ccc(OC)cc2)ns1	-16.8	3888	3.8	5.1	22.5	20.3	-34.0
CC1CN(C(C)CO)C(=O)c2cccc(NC(=O)Nc3ccc(C(F)(F)F)cc3)c2OC1CN(C)C (centres undefined)	/	/	8.7	0.3	6.4	7.7	/
Cc1cccc2nc(CSc3nc4ccccc4o3)cn12	-15.3	2428	1.7	0.1	-5.9	-2.9	-37.3
NC(=O)c1ccccc1NC(=O)c1ccccc1F	-5.6	2618	-6.8	2.3	-2.3	6.7	-21.3
O=C(Nc1ncc([N+](=O)[O-])s1)c1ccccc1Br	5.2	3175	65.6	58.7	9.0	8.0	-71.1
CN(C)C1C(=O)c2ccccc2C1=O	-0.2	2498	0.3	3.4	6.0	1.3	-13.0
COCCn1c(CCc2ccccc2)n[nH]c1=S	-4.6	3169	6.6	12.0	13.6	3.9	-3.1
COc1ccc(OC)c(S(=O)(=O)NC2CC(=O)N(c3cccc(F)c3)C2)c1 (centres undefined)	-1.7	5776	4.9	1.2	4.5	9.3	-17.6
Cc1c(NS(=O)(=O)c2cccc(C(=O)NCc3ccccc3Cl)c2)c(=O)n(-c2ccccc2)n1C	/	?	-2.5	-0.8	1.7	12.3	-1.9
CCN(C(=O)COC(=O)CNC(=O)C12CC3CC(CC(C3)C1)C2)C1CCS(=O)(=O)C1 (centres undefined)	-3.7	2310	8.7	-0.4	2.4	-1.0	-17.0
C=CCNCCCOc1ccc(Cl)cc1C(C)(C)C	-6.4	2717	-31.4	-9.2	8.1	7.8	-15.5
CCC(=O)c1ccc(OCC(=O)N2CCN(CC(=O)Nc3ccccc3C(F)(F)F)CC2)cc1	/	3550	0.2	4.1	7.6	4.7	-5.0
CCC(c1nnnn1C1CCCC1)N1CCC(C(N)=O)CC1 (centres undefined)	0.2	4096	2.1	6.5	8.1	7.7	-14.2
Cc1cccc(C(=O)NN=Cc2ccc(OCC(=O)N3CCCCC3)cc2)c1	/	/	14.8	2.6	11.8	1.5	/
Cc1c(CCCC(=O)O)sc(N)c1C(=O)c1cccc(C(F)(F)F)c1	2.5	3556	-7.9	10.5	13.2	2.7	-13.4
CCc1ccc(N2CC(C(=O)NN=Cc3cccc([N+](=O)[O-])c3)CC2=O)cc1 (centres undefined)	/	/	4.1	1.5	3.6	0.6	/

Structures shown so far containing a thiophene ring, fused or not (two):
SMILES	BJeLR lethal	Bead autofluor	ugtP null kill	RN4220 kill	Mtb hypoxia inh	Mtb hypoxia inh growth	PrP UTR inh
O=C(CNC(=S)N(CCCN1CCOCC1)Cc1cccs1)NCc1ccc(Cl)cc1	6.0	4366	6.6	7.2	5.5	3.9	0.3
Cc1c(CCCC(=O)O)sc(N)c1C(=O)c1cccc(C(F)(F)F)c1	2.5	3556	-7.9	10.5	13.2	2.7	-13.4

Compound profiles, as listed above.
O=C(c1ccc(Cl)c(S(=O)(=O)N2CCCC2)c1)N1CCN(c2ccccn2)CC1 as listed: BJeLR lethal = 1.0; Bead autofluor = 11178; ugtP null kill = -0.9; RN4220 kill = 1.9; Mtb hypoxia inh = 2.6; Mtb hypoxia inh growth = 11.3; PrP UTR inh = -0.7
NC(=O)C1=C[C@@H](c2coc3ccccc3c2=O)C[C@@H](OCCCCO)O1 as listed: BJeLR lethal = 2.9; Bead autofluor = 2798; ugtP null kill = /; RN4220 kill = /; Mtb hypoxia inh = /; Mtb hypoxia inh growth = /; PrP UTR inh = -1.8

Shown in CSV form: 4 of the compounds above
SMILES,BJeLR lethal,Bead autofluor,ugtP null kill,RN4220 kill,Mtb hypoxia inh,Mtb hypoxia inh growth,PrP UTR inh
O=C(c1ccc(Cl)c(S(=O)(=O)N2CCCC2)c1)N1CCN(c2ccccn2)CC1,1.0,11178,-0.9,1.9,2.6,11.3,-0.7
COCCn1c(CCc2ccccc2)n[nH]c1=S,-4.6,3169,6.6,12.0,13.6,3.9,-3.1
COc1cc(C(=O)Nc2cccc(-n3cnnn3)c2)cc(Cl)c1OC,0.8,5230,-1.0,1.5,16.5,21.1,-2.0
O=C(O)c1c[nH]c(=O)c2ccccc12,-7.3,2056,4.0,3.6,2.5,-0.1,-2.8

The list continues.
SMILES	BJeLR lethal	Bead autofluor	ugtP null kill	RN4220 kill	Mtb hypoxia inh	Mtb hypoxia inh growth	PrP UTR inh
O=c1[nH]c(=S)[nH]nc1Cc1ccccc1	-6.0	?	6.1	4.3	11.9	-3.6	-18.5
CC(=NN1CCN(c2ccc(Cl)cc2)CC1)c1cccs1	/	/	6.0	4.7	4.9	6.6	/
Oc1ccc(Br)cc1CNc1ccccn1	-6.9	/	7.5	3.4	5.3	9.9	-19.8
CCN(Cc1nc(-c2cccc(C)c2)no1)C(=O)c1ccc2c(c1)OCO2	-3.2	2737	0.0	-2.6	-5.6	-7.9	-27.7
O=C(O)CCCC(=O)N(Cc1ccccc1)Cc1ccccc1	7.1	8831	-1.7	1.7	-1.9	-1.3	-21.7
C/C(=N\NC(=O)c1cccc(Br)c1)c1cccc(NC(=O)c2ccc(C)o2)c1	-9.9	4956	/	/	/	/	-5.2
CC(C)Oc1ccc(C(=O)N2CCCc3ccccc32)cc1	1.3	4009	11.0	2.6	17.6	11.1	-23.6
COc1cc(C(CCN2CCCCC2)c2c(OC)cc(OC)c3c(C)cc(=O)oc23)cc(OC)c1OC (centres undefined)	8.7	3126	-1.3	0.8	14.6	18.4	5.9
CC(=NNC(=O)c1c(C)nc2ccccn12)c1ccco1	/	/	12.7	5.3	-5.3	0.0	/
CN(CC(=O)Nc1cccc(F)c1)C(=O)c1cc([N+](=O)[O-])ccc1N1CCOCC1	-2.7	5509	3.8	3.0	0.7	2.9	-7.5
CCN1CCc2nc3sc(C(=O)N4CCc5ccccc5C4)c(N)c3cc2C1	0.7	5053	-4.2	2.8	10.8	9.6	-23.6
COc1ccc(OC)c(C(=O)Cn2nnc3ccccc3c2=O)c1	/	11170	8.5	3.2	11.2	7.7	-28.1
Cc1c(C(=O)N2CCc3ccccc3C2)oc2ccc(S(=O)(=O)N3CCCCCC3)cc12	11.0	2787	-11.0	4.5	3.0	7.9	-12.0
C=CCOC(=O)C1=C(C)NC2(O)c3ccccc3C(=O)C12O (centres undefined)	-5.8	2794	4.6	-0.2	/	/	-16.4
N#Cc1ccc(NC(=S)NC(=O)C2CCCCC2)cc1	/	3611	28.0	-0.5	21.6	17.2	-24.5
CC1(C)Cc2c(oc3ncn4ncnc4c23)CO1	-10.3	4965	-10.4	4.7	/	/	-19.6
O=C(CCC(=O)N1CCN(S(=O)(=O)c2ccccc2Cl)CC1)c1ccccc1	/	5216	1.6	0.3	10.5	11.8	-11.5
Cc1ccc(NC(=O)Nc2cc(C(F)(F)F)c[nH]c2=O)cc1	-18.9	4070	2.2	-2.7	-1.0	-4.8	3.9
CCN(CC)S(=O)(=O)c1cccc(C(=O)Nc2sc3c(c2C(N)=O)CCCC3)c1	-13.3	11704	4.4	1.1	7.0	2.8	-11.5
O=C(Nc1ccccc1)C1=C(O)CC(c2ccc(Cl)cc2)N2CCN=C12 (centres undefined)	-3.2	2222	11.6	0.0	8.9	14.3	-11.9
Cc1ccc(NC(=O)c2oc3ccc(Br)cc3c2C)cc1S(=O)(=O)N1CCOCC1	/	6051	-1.6	2.6	0.4	-1.3	7.4
COc1ccc(C(=O)Nc2ccc(Cl)cn2)cc1S(=O)(=O)N1CCCC1	/	6430	9.0	4.5	5.2	-3.2	-23.1
CCC1(C)NC(=O)N(CC(=O)N2CCN(c3cccc(Cl)c3)CC2)C1=O (centres undefined)	/	7977	-3.9	0.3	4.5	8.4	-17.7
Cn1c(NCc2ccccc2Cl)nc2ccccc21	7.8	5068	9.6	-9.7	13.7	14.1	-73.0
COc1ccc(N2CCN(CC(=O)c3ccc(Cl)cc3)CC2)cc1	5.3	4235	7.5	2.0	0.6	3.7	-6.6

(cont.)
SMILES	BJeLR lethal	Bead autofluor	ugtP null kill	RN4220 kill	Mtb hypoxia inh	Mtb hypoxia inh growth	PrP UTR inh
O=C(c1ccco1)N1CCN(c2nc(C(F)(F)F)nc3c2nnn3Cc2ccccc2)CC1	2.8	24937*	1.4	-6.0	5.0	4.5	-3.3
COc1ccccc1C(=O)NNC(=O)C(=O)N1CCCCC1	-3.5	3877	1.9	1.5	-0.5	-5.6	2.9
Cc1cc2nc(N3CCN(C(=O)c4ccco4)CC3)sc2cc1C	-0.9	?	-0.2	3.9	7.6	8.3	-112.3
CC1(C)CC(=O)N(CC(=O)O)c2ccccc2S1	5.4	15204	6.0	2.6	6.0	2.8	-15.8
Cc1ccc(N2CCN(C(=S)c3ccc(-c4ccccc4[N+](=O)[O-])o3)CC2)cc1	-2.9	3468	1.3	1.1	18.0	0.5	-14.5
Cc1cc(NC(=O)c2cccnc2)ccc1Br	-2.1	3505	5.7	-1.9	2.8	10.0	-43.5
O=C(Nc1ccc(Oc2cccnc2)nc1)c1ccc(C(F)(F)F)cc1	13.2	5507	-19.4	-10.1	10.3	-0.7	-30.7
CCOC(=O)Cn1c(=NC(=O)c2sc3ccccc3c2Cl)sc2cc(S(N)(=O)=O)ccc21	3.5	8299	-8.2	4.2	-3.9	-5.3	-20.6
CC(=O)N(CCC(c1ccccc1)c1ccco1)Cc1cccs1 (centres undefined)	-1.0	4723	11.4	-3.8	9.0	7.6	-4.8
CC(C)(C)OC(=O)N[C@@H](CC(=O)OCc1ccccc1)C(=O)O	1.6	3942	-5.2	0.1	2.9	11.5	-7.8
CCCn1c(=O)c2[nH]c(-c3ccc(S(=O)(=O)O)cc3)nc2n(CCC)c1=O	/	6443	0.6	3.9	5.7	12.3	-24.3
COc1ccc(CCN=C(N)NS(=O)(=O)c2ccc(C)c(C)c2)cc1OC	9.8	5775	2.5	2.3	-0.1	-3.1	-4.0
COc1ccc(CNc2cc(C)ccc2C)c(OC)c1OC	4.1	19482*	-1.2	3.7	9.2	8.2	-28.4
CCNc1nc(SCCOc2ccccc2)nc(N(C)C)n1	0.6	8243	75.6	-6.5	-1.0	4.6	-2.9
CNc1snc(C)c1C(=O)OC(C)C(=O)c1ccc(F)cc1 (centres undefined)	/	3708	6.1	6.3	19.0	38.6	-23.7
COc1ccc(S(=O)(=O)NCc2ccc3c(c2)cc(C)n3C)cc1	-5.3	1230	-5.4	-12.3	2.1	8.9	-25.7
CCCNC(=O)NC(=O)COC(=O)/C=C/c1cc(Br)ccc1F	-8.7	4592	-1.2	5.1	-15.0	1.1	-7.3
COCCNCc1ccccc1	-1.5	24425*	9.1	4.3	11.1	6.8	3.3

Copied from the list.
In Mtb hypoxia inh, COc1ccc(CCN=C(N)NS(=O)(=O)c2ccc(C)c(C)c2)cc1OC reads -0.1
In Mtb hypoxia inh, O=C(O)c1c[nH]c(=O)c2ccccc12 reads 2.5
In Bead autofluor, CCC(c1nnnn1C1CCCC1)N1CCC(C(N)=O)CC1 (centres undefined) reads 4096
In Bead autofluor, CNc1ncc(-c2nnnn2-c2ccccc2)c(-c2ccccc2)n1 reads 5596
In ugtP null kill, Cc1ccc(N2CCN(C(=S)c3ccc(-c4ccccc4[N+](=O)[O-])o3)CC2)cc1 reads 1.3
In PrP UTR inh, COc1ccc(OC)c(C(=O)Cn2nnc3ccccc3c2=O)c1 reads -28.1
In RN4220 kill, Cc1c(NS(=O)(=O)c2cccc(C(=O)NCc3ccccc3Cl)c2)c(=O)n(-c2ccccc2)n1C reads -0.8

Source: PubChem (several laboratories)
